# Beta2AR agonist: agonists of human beta-2 adrenergic receptor inducing internalization | P07550 | Am2.2-beta2AR cells, FAP receptor internalization, flow cytometry; reference of the scale not given here | response, % (no concentration beside the values) | 0.43% of 340,000 active | AID 504454;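 active = response above a set limit, near 3 SD of response in nonfluorescent compounds, cut at about 42% in these data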;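 also: stock transfer was 100 nL into about 11 µL; a reference agonist was the positive control; negative values mostly stem from fluorescent compounds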
# Target sequence (P07550 whole entry, looked up): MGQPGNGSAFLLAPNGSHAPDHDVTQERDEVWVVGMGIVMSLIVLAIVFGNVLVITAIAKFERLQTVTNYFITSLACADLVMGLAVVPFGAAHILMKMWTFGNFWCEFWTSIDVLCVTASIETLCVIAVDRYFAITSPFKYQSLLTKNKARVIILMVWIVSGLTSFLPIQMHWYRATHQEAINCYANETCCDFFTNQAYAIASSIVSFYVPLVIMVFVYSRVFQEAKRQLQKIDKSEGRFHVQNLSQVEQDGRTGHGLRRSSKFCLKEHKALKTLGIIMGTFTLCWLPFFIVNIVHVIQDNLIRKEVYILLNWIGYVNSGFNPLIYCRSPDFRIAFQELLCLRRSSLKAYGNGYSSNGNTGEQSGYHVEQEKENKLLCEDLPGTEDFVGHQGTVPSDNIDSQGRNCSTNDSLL
# T cruzi inh: blocks replication of Trypanosoma cruzi. inhibition, % (concentration not given with the values). 1.4% of 300,000 active. AID 1885. T. cruzi beta-gal in NIH3T3, luminescence, 90 h;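 active = mean inhibition across valid replicates above about 55%, limit read from the data; inconclusive = mean below that limit but half or more replicates reach it; inactive = mean below it, under half of replicates reach it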;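 also: signal also drops with host cell toxicity which is not excluded here; 0% = plate median of DMSO wells and 100% = zero luminescence signal; higher percent means less beta-gal luminescence so fewer parasites; stock transfer was 50 nL into about 50 µL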
# Beta apoptosis: blocks beta cell apoptosis | AID 435005 | protection from apoptosis, % (no concentration beside the values) | 0.8% of 300,000 active | INS-1E cytokine-induced death, ATP luminescence, 48 h; percent of positive-control rescue, neutral wells zero;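 active = all replicates at 75% or more, or half of them and the mean; inconclusive = half reach 75% but not the mean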;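 also: 0% = cytokine-treated negative control wells and 100% = positive control rescue; higher means more ATP so stronger rescue from cytokine killing; wells of about 40 µL received 100 nL stock; the first replicate is given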
# LANA-H2A inh: blocks KSHV LANA binding to histone H2A/H2B. Q9QR71. cell-free LANA-H2A/H2B peptide, fluorescence polarization. inhibition, % (test concentration not listed). 0.6% of 320,000 active. AID 2629; in the data active = inhibition mostly above about 10%, no sharp cut-off; inactive = mostly below about 6.7%;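 also: stock transfer was 7.5 nL into about 10 µL; 0% = median of vehicle wells and 100% = median of positive control wells; one replicate is shown; the record names a cut of 25% in any replicate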
# UCH37 inh: human UCH37 deubiquitinating enzyme inhibition | purified proteasome/UCH37, Ub-AMC cleavage fluorescence | Q9Y5K5 | inhibition, % (test concentration not listed) | 0.33% of 330,000 active;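 active = mean of two replicates above 20%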;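 also: 0% = compound-free wells with enzyme and 100% = wells lacking proteasome; stock transfer was 100 nL into about 20 µL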
# Target sequence (Q9Y5K5 whole entry, looked up): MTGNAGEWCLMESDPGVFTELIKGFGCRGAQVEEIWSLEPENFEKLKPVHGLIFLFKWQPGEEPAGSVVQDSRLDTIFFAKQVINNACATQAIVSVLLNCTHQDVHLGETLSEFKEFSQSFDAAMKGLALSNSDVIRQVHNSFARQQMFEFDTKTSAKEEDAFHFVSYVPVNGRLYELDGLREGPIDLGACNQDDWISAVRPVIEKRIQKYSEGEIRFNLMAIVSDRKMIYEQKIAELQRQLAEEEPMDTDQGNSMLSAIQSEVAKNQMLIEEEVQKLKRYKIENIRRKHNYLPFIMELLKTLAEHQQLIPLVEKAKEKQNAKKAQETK
#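 Assay system: Proteasome-bound UCH37. Buffer or medium: pH 7.4 Tris-HCl (50 mM) with ovalbumin, ATP-MgCl2, DTT. Incubation: 30 min preincubation with enzyme, 25 min cleavage at room temperature. Measured by: fluorescence, ex 355 nm, em 460 nm. Read-out basis: percent inhibition. Control set: wells without proteasome as full block, compound-free enzyme plus substrate as uninhibited.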
# RanGTP-Impb inh: inhibitors of RanGTP-importin-beta interaction, primary screen, biochemical, FRET, CFP-Ran, YFP-importin-beta, homogeneous; cell-free CFP-Ran/YFP-importin-beta FRET ratio; 1.1% of 300,000 active; inhibition, % (concentration not given with the values);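 active = most replicates above 15%; inconclusive = exactly half above 15%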;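 also: 0% = DMSO wells and 100% = Ran loaded with GDP instead of GTP; wells of about 40 µL received 100 nL stock; the first replicate is given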
# Calb FLC: affects C. albicans growth with fluconazole; C. albicans CaCi-2 (fluconazole-resistant clinical isolate) + fluconazole, Alamar Blue growth, 48 h; growth inhibition, % (no concentration beside the values); 0.57% of 300,000 active; AID 1979;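 active = most replicates above 75%; inconclusive = exactly half above 75%; inactive = most below 75%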;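 also: all wells also contain fluconazole at 8 µg/ml as a sub-toxic cotreatment; 0% = median of DMSO wells and 100% = median of geldanamycin control wells; wells of about 8 µL received 7.5 nL stock; the first replicate is given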
# Bfl-1 A1 inh: inhibitors of the anti-apoptotic protein A1, read as caspase activation; MEF A1-2A-BIM cells, Caspase-Glo 3/7 luminescence, 3 h; percent of clofoctol response, vehicle zero; caspase activation, % (concentration not given with the values); 0.066% of 330,000 active;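 active = over half of replicate activation scores above 10%, or exactly half above 10 with the replicate mean above 10; inconclusive = replicate mean below 10 yet half the replicates above 10; inactive = over half of replicates below 10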;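 also: wells of about 30 µL received 50 nL stock; many hits fall short of the cut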
# The depositor's hits bear a star; ? = inconclusive; nt = not tested or not shown.
# Results follow in this order: Beta2AR agonist	T cruzi inh	Beta apoptosis	LANA-H2A inh	UCH37 inh	RanGTP-Impb inh	Calb FLC	Bfl-1 A1 inh
- Cc1nn(CCCC(=O)NCCc2ccc(Cl)cc2)c(=O)c2nn(-c3ccccc3)c(C)c12
 : -9	8	2	4.0	4.1	1.6	3	1.1
- C[C@H]1NC(=O)[C@@]2(C)[C@@H](c3ccccc3)[C@H]3COc4ccccc4[C@H]3N2C1=O
 : 6	nt	4	-2.8	1.4	nt	nt	-0.1
- CC(=O)Nc1ccc(S(=O)(=O)N(C)CC(=O)N2CCN(C(=O)c3ccco3)CC2)cc1
 : 0	nt	1	1.1	2.5	nt	nt	-1.0
- COc1cc(C(=O)OCC(=O)c2c[nH]c3ccccc23)ccc1OCC(=O)N1CCOCC1
 : 15	-1	-4	-1.9	3.3	-3.0	9	-0.1
- OC(CNCCc1ccc(Cl)cc1Cl)COc1ccccc1 (stereo not given)
 : -14	?	8	0.6	0.0	3.0	7	-0.3
- O=c1c2cccc(Cl)c2nc2n1Cc1ccccc1-2
 : -12	4	4	4.3	-5.8	-2.0	7	-5.3
- Cc1ccc(C(=O)NCCCN2CCOCC2)c(C)c1
 : 3	-2	-3	1.8	0.3	-1.5	-8	0.0
- CCn1cc(C(=O)O)c(=O)c2cnc(N3CCN(C(=S)Nc4ccccc4Cl)CC3)nc21
 : 5	8	-3	2.8	2.7	1.6	1	-0.8
- Cc1ccc(S(=O)(=O)N(C)C)cc1NC(=O)CN1CCCC1
 : 0	-7	nt	4.3	-0.4	0.1	1	-0.7
- CN(C)NC(=O)c1cccc(Cl)c1
 : 5	12	-5	18	2.1	?	7	-0.8
- O=C(O)/C=C\c1ccccc1Oc1ccc(F)cc1
 : -2	-22	-1	-3.4	1.9	3.8	15	-0.3
- Cc1noc(C)c1COc1ccc(C(=O)NNC(=O)c2ccccc2F)cc1
 : -20	nt	5	-1.4	3.8	nt	nt	2.3
- CCN(Cc1ccccc1)c1ccc(/C=N/NS(=O)(=O)c2ccc(C)c([N+](=O)[O-])c2)cc1
 : 14	-1	1	0.4	nt	5.2	-2	-0.1
- COC(=O)c1cc(N=C(N)N=C(N)N)cc(C(=O)OC)c1
 : -4	-9	-2	0.6	2.2	-4.4	-3	0.2
- C[C@@H]1CN([C@@H](C)CO)C(=O)Cc2cc(NS(=O)(=O)c3cn(C)cn3)ccc2O[C@@H]1CN(C)C(=O)Nc1ccccc1
 : 0	nt	-4	6.4	-3.4	nt	nt	-0.3
- O=C(c1ccco1)N1CCN(S(=O)(=O)c2ccc3c(c2)CCN3C(=O)C2CC2)CC1
 : -12	-6	-8	6.4	2.9	3.1	5	-0.4
- C1=CC2=NC34CCCCC3CC3=C(CCCC3)N4C2=CC1=NC1CCCCC1 (stereo not given)
 : -1	?	-2	1.9	1.8	-0.4	2	0.9
- O=C(Nc1ccncc1)c1ccc(Cl)c(Cl)c1
 : -11	62*	7	-1.3	2.0	2.9	11	-1.5
- O=C(CSc1nnc(Cc2cc(=O)[nH]c(=O)[nH]2)n1-c1ccccc1)N1CCCC1
 : -1	-12	-7	-6.9	1.3	-1.3	-14	1.1
- Fc1ccc2c(c1)/C(=N/Nc1ccccn1)CCS2
 : -8	8	0	1.4	nt	4.8	-24	0.1
- CN(C)CCNC(=O)C(=O)NCC(c1ccc2c(c1)OCO2)N1CCN(c2ccc(F)cc2)CC1 (stereo not given)
 : 6	13	-10	-3.0	5.5	2.5	49	-0.3
- CCc1cccc(CC)c1NC(=O)c1cccc(NC(=O)c2ccccc2)c1
 : -4	-2	1	-5.8	1.2	-1.2	21	-0.2
- Cc1cc(NC(=O)c2cc(F)c(F)cc2Cl)no1
 : 4	-2	-9	4.2	-0.5	-1.0	24	1.1
- Cc1cccc2sc(N(CCCN(C)C)C(=O)COc3ccc(Cl)cc3)nc12
 : -9	54	-3	-9.5	6.3	1.3	-32	0.0
- C=CCNC(=S)NNC(=O)c1csc(C)c1C
 : -3	-20	-2	0.7	2.4	-1.0	3	0.4
- CCOC(=O)CCC(NC(=O)CCCCC(=O)NC(CCC(=O)OCC)C(=O)OCC)C(=O)OCC (stereo not given)
 : -2	-8	0	-1.1	3.1	1.7	0	0.9
- O=Cc1cccc(OC(=O)/C=C/c2ccco2)c1
 : 1	7	1	9.5	3.6	0.0	-8	-5.8
- CCOC(=O)COc1cc2oc(=O)cc(C)c2cc1[N+](=O)[O-]
 : 16	-17	0	-1.5	1.2	-0.5	3	0.9
- Cc1cc(C)nc(SCc2nnc(SCC(N)=O)n2Cc2ccco2)n1
 : 0	-11	-10	7.4	0.9	-1.5	8	0.3
- O=C(COC(=O)/C=C/c1cnc2ccccc2n1)NCC(F)(F)F
 : 1	-10	-14	-0.4	5.2	-3.8	2	1.5
- O=C(COC(=O)c1cc(-c2cccc3ccccc23)nc2ccccc12)NC1CCS(=O)(=O)C1 (stereo not given)
 : -7	-11	-2	0.7	-19	-5.4	40	2.4
- COc1ccc(OCc2n[nH]c(=S)n2N)cc1
 : 4	-6	-4	-1.6	0.4	3.0	-21	-0.2
- COc1ccc(NC(=O)c2ccc(COCC(F)(F)C(F)F)cc2)cc1
 : 10	-11	1	2.5	5.0	6.6	-24	0.9
- CC1CCN(S(=O)(=O)c2nnc(NC(=O)c3ccccc3Br)s2)CC1
 : 5	5	2	-0.9	1.7	4.8	-2	0.1
- COC(=O)C1=C(N)c2ccccc2C1(C#N)c1ccccc1 (stereo not given)
 : 7	9	-5	1.0	-14	-0.1	1	-0.1
- CCNC(=O)CN1c2cccc3cccc(c23)S1(=O)=O
 : -3	0	-4	4.3	-58	1.7	-5	-0.1
- CCO/N=C1\C(=O)N(c2ccccc2)c2ccccc21
 : 3	-6	-3	1.2	nt	-1.8	-27	-0.1
- C/C(=N\NC(=O)c1ccn(C)n1)c1cccc(NC(=O)c2ccc(C)s2)c1
 : -1	2	10	-5.6	nt	1.6	?	-0.1
- O=C(O)CCc1ccc(-c2ccc(Cl)cc2)o1
 : 10	10	-7	3.7	2.7	2.0	55	-2.8
- Nc1cc(Cl)ccc1Oc1ccc(Cl)cc1
 : 13	10	3	-0.1	4.3	4.1	13	0.1
- CCOC(=O)C1C(=O)NC(c2ccccc2)=NC1c1ccc(Cl)cc1 (stereo not given)
 : 4	-4	-2	3.4	2.2	1.5	5	0.3
- Cc1ccc(-c2nn(CCC(N)=O)c(=O)c3ccccc23)cc1
 : -2	-6	2	-2.4	-1.3	-2.2	-1	1.2
- CC(C)(C)c1nc2ccccc2c2nnc(SCC(=O)Nc3nc4ccccc4s3)n12
 : -8	13	0	-7.3	6.8	-1.9	2	0.4
- CCCCNC(=S)NCc1ccc2[nH]c(C)cc2c1
 : 6	6	12	-4.4	5.1	1.8	-9	nt
- COc1ccc(-c2cc(C(=O)N3CCN(c4cccc(C)c4C)CC3)c3ccccc3n2)cc1OC
 : 13	62*	0	-2.5	-114	-1.8	-3	-0.5
- Cc1c(Br)c([N+](=O)[O-])nn1CCCC(=O)Nc1sc2c(c1C(N)=O)CCC(C)C2 (stereo not given)
 : -12	18	-5	2.6	-11	1.7	9	1.1
- O=[N+]([O-])c1ccc(N2CCCCCC2)c(S(=O)(=O)N2CCCCC2)c1
 : 21	31	nt	6.1	0.5	-4.6	-5	0.7
- CCOc1ccccc1OCC(=O)O
 : -3	-12	-4	-5.7	1.4	?	-17	0.7
- O=S(=O)(/N=C(/NS(=O)(=O)c1ccccc1)c1ccccc1)c1ccccc1
 : 6	-12	3	-2.9	nt	2.8	13	0.1
- N[C@H]1C(O)O[C@H](CO)[C@@H](O)[C@@H]1O (stereo not given in full)
 : -2	9	-1	-3.4	-0.5	0.2	nt	0.1
- COCc1cc(C)nc(SCc2ccccc2Cl)c1C#N
 : -9	20	8	0.6	5.6	-1.1	8	1.2
- CCOC(=O)c1cnn2c(C(F)F)cc(C3CC3)nc12
 : -4	0	2	1.8	-6.1	0.9	-6	-0.3
- O=C(Nc1nnc(SCc2ccccc2)s1)c1cc2c(s1)CCCC2
 : 0	-20	5	1.4	-2.0	4.0	4	0.2
- COc1cc(O)c(C(CC(=O)N2CCCC2)c2ccc3c(c2)OCO3)c(OC)c1 (stereo not given)
 : -6	-14	2	-1.5	1.2	-1.0	-4	-0.8
- CCN(C(=O)CSc1nnc2ccccn12)c1c(N)n(Cc2ccccc2)c(=O)[nH]c1=O
 : -5	-1	2	2.0	2.0	-3.0	-6	0.7
- Cc1cc(Cl)ccc1OCC(=O)NCC(c1cccs1)N1CCOCC1 (stereo not given)
 : 10	7	nt	0.2	1.0	2.6	-2	0.8
- O=C(O)c1cn(Cc2cccnc2)c(=O)c2ccccc12
 : nt	-4	-3	1.5	1.1	18*	-11	-0.5
- O=C(COC(=O)c1cc([N+](=O)[O-])ccc1NCCO)Nc1cccnc1Cl
 : -13	nt	1	-0.3	8.9	nt	nt	0.5
- O=C(CCc1ccc(S(=O)(=O)N2CCOCC2)cc1)N/N=C/c1ccc(F)cc1F
 : 0	20	0	2.8	nt	?	?	-0.5
- CC(C)C(NC(N)=O)C(=O)NC1CCCCC1 (stereo not given)
 : nt	2	-4	3.2	-1.7	2.7	3	-1.1

# New compounds follow.
# Results follow in this order: Beta2AR agonist	T cruzi inh	Beta apoptosis	LANA-H2A inh	UCH37 inh	RanGTP-Impb inh	Calb FLC	Bfl-1 A1 inh
- Cn1cc(Br)c(C(=O)NC2CCCCC2)n1
 : 9	-23	-2	1.4	3.5	5.7	-22	0.9
- CCOC(=O)c1c(C)oc2c1c(C(c1ccncc1)N1CCOCC1)c(O)c1ccccc12 (stereo not given)
 : nt	nt	1	-7.3	0.1	nt	nt	0.3
- CC1CCCN(c2ccc(F)cc2N)C1 (stereo not given)
 : 1	37	-3	-3.1	6.9	2.1	?	0.3
- CCn1c(SCC(=O)Nc2cc(C)on2)nc2sc3c(c2c1=O)CCCC3
 : -2	-1	82*	0.7	0.4	?	12	-0.7
- CC(NC(=O)c1ccc(Cl)cc1)C(=O)NC1=NCCS1 (stereo not given)
 : -3	-13	-1	1.2	3.6	1.0	9	0.3
- CCN(CC)C(=O)N1CCC(NC(=O)c2ccc(C(C)(C)C)cc2)CC1
 : 2	3	0	1.2	3.9	4.0	-19	0.9
- O=C(c1ccc(F)cc1)C1CCN(C(=O)c2ccccc2)CC1
 : -6	-3	2	-3.0	0.0	5.8	-6	1.4
- COc1cccc(N2CCN(C(=O)c3ccc(CS(=O)Cc4ccccc4Cl)o3)CC2)c1 (stereo not given)
 : 5	6	-1	6.4	0.3	1.7	4	0.1
- CSc1cccc(NC(=S)NC(=O)CCc2ccccc2)c1
 : 1	1	-1	-2.1	2.9	-0.7	-10	0.7
- O=C(O)c1cc(-c2ccc(-c3ccc(F)cc3)o2)nc2ccccc12
 : 8	-7	2	-0.4	nt	4.1	-8	0.4
- CC(C)N(C(=O)CSc1ncnc2sc(-c3ccccc3)cc12)C(C)C
 : -55	-10	7	-2.9	-7.7	2.3	-4	-0.5
- COc1ccc(-c2csc(-c3[nH]cnc3N)n2)cc1
 : 7	-1	-4	-1.3	3.8	nt	-3	-0.1
- Cc1cccc(C(=O)N2CCNC(=O)C2CC(=O)Nc2cccc(Cl)c2)c1 (stereo not given)
 : -1	6	4	-2.2	3.4	0.0	-1	0.2
